# Screens from PubChem.
# KCNQ2 pot = potentiators of rat KCNQ2 potassium channel | hit rate 0.54% among 310,000 | B-score at 10 µM | CHO-K1 KCNQ2, FluxOR thallium flux fluorescence; active compounds read high | O88943;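 active = fluorescence ratio B-score at least 3 SD of library B-scores, with initial fluorescence B-score within 3 SD, cut at about 5.3 in these data; same plate scores as AID 2156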;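 also: B-score of peak minus minimum over baseline fluorescence ratio after K+ and Tl+ stimulus; positive B-score means potentiation of KCNQ2 with more thallium influx and brighter signal; only the inactives scoring about 0 or higher are listed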
# Target sequence (O88943 whole entry, looked up): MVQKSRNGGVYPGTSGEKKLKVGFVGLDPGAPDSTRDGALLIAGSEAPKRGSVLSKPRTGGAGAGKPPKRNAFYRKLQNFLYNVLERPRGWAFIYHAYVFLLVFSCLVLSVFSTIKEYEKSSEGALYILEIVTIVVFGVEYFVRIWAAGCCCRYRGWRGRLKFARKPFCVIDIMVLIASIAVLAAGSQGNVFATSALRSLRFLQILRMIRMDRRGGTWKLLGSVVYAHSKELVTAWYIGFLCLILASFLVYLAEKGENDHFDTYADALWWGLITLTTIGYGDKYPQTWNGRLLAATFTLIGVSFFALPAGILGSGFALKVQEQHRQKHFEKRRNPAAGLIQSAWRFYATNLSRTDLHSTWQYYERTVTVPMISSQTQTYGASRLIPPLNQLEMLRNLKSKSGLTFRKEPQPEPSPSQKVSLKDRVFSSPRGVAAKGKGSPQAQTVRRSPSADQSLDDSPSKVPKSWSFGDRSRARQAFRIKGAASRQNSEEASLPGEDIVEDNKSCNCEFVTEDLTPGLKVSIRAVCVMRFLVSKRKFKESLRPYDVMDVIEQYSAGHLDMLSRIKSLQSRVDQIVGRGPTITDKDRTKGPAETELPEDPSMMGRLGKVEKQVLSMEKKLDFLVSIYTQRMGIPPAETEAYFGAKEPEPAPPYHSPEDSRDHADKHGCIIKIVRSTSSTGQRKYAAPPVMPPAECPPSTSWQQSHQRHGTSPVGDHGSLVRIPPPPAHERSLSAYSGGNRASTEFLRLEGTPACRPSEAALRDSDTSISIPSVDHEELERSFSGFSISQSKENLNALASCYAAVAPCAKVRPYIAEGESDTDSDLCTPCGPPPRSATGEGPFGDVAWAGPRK
# KCNQ2 pot baseline = recorded beside KCNQ2 pot, whose call it bears; B-score; compound at 10 µM; measured here: initial fluorescence intensity artifact check;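 brightness before thallium and not channel activity; 0 = typical well and far values either way flag optical interference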
# * = called active by the depositor.
# The opening 2 records (preview)
SMILES,KCNQ2 pot,KCNQ2 pot baseline
O=C1c2cccc3cccc(c23)C(=O)N1CC1CCN(CC(O)COc2ccc3ccccc3c2)CC1 (configuration not stated),0.1,-1.12
COc1ccc(Cl)cc1-c1nc(SCC(=O)N(C)C)n[nH]1,1.55,-0.65

# The listing, from the first entry:
SMILES,KCNQ2 pot,KCNQ2 pot baseline
O=C1c2cccc3cccc(c23)C(=O)N1CC1CCN(CC(O)COc2ccc3ccccc3c2)CC1 (configuration not stated),0.1,-1.12
COc1ccc(Cl)cc1-c1nc(SCC(=O)N(C)C)n[nH]1,1.55,-0.65
O=C(NC(=O)N1CCCC1)c1csnn1,1.07,0.06
Cc1cc2c(c(N3CCOCC3)n1)C(=O)OC2,0.29,0.68
Cc1ccc(-c2nc(-c3cccnc3)no2)cc1,0.84,0.69
CCOCCc1nnc(NC(=O)Cc2c(F)cccc2Cl)s1,0.05,-1.07
COc1ccccc1-c1cnn2c(N3CCOCC3)cc(C)nc12,0.42,0.23
C/C(N)=C(/C#N)C(=O)COC(=O)c1cc2c(s1)CCCC2,0.85,0.84
CCOC(=O)C1=C(C)NC(=S)NC1/C=C/c1ccccc1 (configuration not stated),0.04,-1.07
CCOC(=O)N1CCC(C(=O)Nc2ccc(OCC)cc2)CC1,0.42,0.4
CCOc1cc(CNn2cnnc2)cc(Br)c1OCC(=O)NC(C)(C)C,0.87,0.09
COc1cccc(CNC(=O)CCNS(=O)(=O)c2ccc(C)cc2)c1,1,1.35
O=Cc1ccc2noc(-c3ccc(Cl)cc3)c2c1,0.24,2.24
Cc1cc(/C=C(\C#N)C(=O)Nc2ccccc2)c(C)n1-c1ccc(C(=O)O)cc1,4.26,0.74
O=C(Nc1cccc(NC(=O)N2CCN(c3ccccc3)CC2)c1)N1CCN(c2ccccc2)CC1,0.04,-1.35
CCc1ccc(C(=O)CSc2ncn[nH]2)cc1,1.09,1.67
O=C(NNC1CC(=O)N(c2cccc(Cl)c2)C1=O)c1cccnc1 (configuration not stated),0.26,0.9
Cc1cc(C)c2nc3nc(C)cc(C)c3c(N)c2c1,1.91,0.7
COc1cc2c(cc1OC)C(CC(=O)O)N(C(=O)CC1CCCC1)CC2 (configuration not stated),0.66,0.81
COc1cc(C(=O)OCC(=O)NCc2ccccc2)cc(NC(=O)c2ccco2)c1OC,0.06,0.35
NC(=O)CSc1ncnc2c1oc1ccccc12,2.44,-0.48
COc1ccc(S(=O)(=O)N(CC(=O)N2CCN(C)CC2)c2ccc(C)cc2)cc1Br,0.7,0.23
CCOC(=O)c1c(-c2ccccc2)oc2ccc(O)c(CN(C)C)c12,1.41,-0.86
O=S(=O)([N-]c1nc2ccccc2nc1-[n+]1ccccc1)c1ccc(F)cc1,0.53,-1.12
Nc1ncncc1-c1ccc([N+](=O)[O-])cc1,0.18,0.96
# (more compounds)
SMILES,KCNQ2 pot,KCNQ2 pot baseline
Cc1ccc(Cn2ccsc2=NC(=O)COC(=O)c2ccc(NC(=O)CC#N)cc2)cc1,0.47,0.87
O=C(COC(=O)c1cccc(C(=O)OCC(=O)NCc2ccc(F)cc2)n1)NCc1ccc(F)cc1,0.06,0.76
Nc1nonc1-n1nnc(C(=O)N/N=C/c2cccc(O)c2)c1CN1CCCC1,1.32,0.77
CC(C)[C@H](NC(=O)c1ccccc1Cl)C(=O)NC1CCCCCC1,2.25,1.39
Cc1ccc(NC(=O)c2ccc(=O)[nH]n2)cc1C,0.6,-2.1
COc1cc(CN2CCNC(=O)C2CC(=O)O)cc(OC)c1 (configuration not stated),0.92,0.38
CCOC(=O)CCc1cnccc1-c1cccc(OC)c1O,1.09,-0.96
CCC(C)[C@H](NC(=O)Nc1ccccc1F)C(=O)O (some centres not stated),1.02,0.37
CCC(=O)N1CCN(c2nc3ccc(Br)cc3s2)CC1,0.41,-0.03
O=c1cc(N2CCN(c3ccccc3)CC2)[nH]c(=O)n1-c1ccccc1,0.91,0.67
CCN(C(=O)COC(=O)c1nc2nc(C)cc(C)n2n1)C1CCS(=O)(=O)C1 (configuration not stated),0.96,0.97
COc1ccc(OC)c(-c2csc(NC(=O)CN3C(=O)NC4(CCCC4)C3=O)n2)c1,4.2,-0.09
CCOC(=O)c1sc(NC(=O)CSc2n[nH]c(CC(C)C)n2)nc1C,1.36,0.64
CCN(C(=O)CSc1nnc(CNc2cccc(OC)c2)n1C1CCCCC1)C1CCS(=O)(=O)C1 (configuration not stated),0.04,-1.12
Cc1nn(C(C)C)c(C)c1CN1CCCC(C(=O)c2cccc(OC(C)C)c2)C1 (configuration not stated),0.94,0.02
Cc1ccnc(Sc2ncccc2[N+](=O)[O-])n1,0.28,-0.26
CC(=O)c1cn(CC(=O)NCc2ccco2)c2ccccc12,0.04,0.03
Cc1cccc(C(=O)C2CCN(S(=O)(=O)c3cccc(C(=O)O)c3)CC2)c1,0.31,1.18
CCSc1nnc(NC(=O)CSc2nccn2-c2cccc(C)c2)s1,0.52,-2.58
NC(=O)c1cnn2c(C(F)(F)F)cc(-c3ccccc3)nc12,2.99,0.81
COc1ccc(N2C(=O)C3C4c5ccccc5C(C=Nc5ccc(C)cc5C)(c5ccccc54)C3C2=O)cc1 (configuration not stated),0.58,1.59
CSc1nsc(SC)c1NC(=O)N1CCCC1,0.55,-0.18
CC1CC(=O)Nc2ccc([N+](=O)[O-])cc2N1C (configuration not stated),0.65,0.03
Cc1cc(C)cc(NC(=O)CSc2nnc(-c3ccc(S(=O)(=O)N4CCCC4)cc3)o2)c1,0.78,1.16
CCN(CC)C(=O)CSc1nnc(-c2ccccn2)n1Cc1ccccc1,1.84,1.12
# More records follow.
SMILES,KCNQ2 pot,KCNQ2 pot baseline
COC(=O)c1ccc(NC(=O)CN2CCN(CCO)CC2)cc1,0.72,0.82
c1ccc2c(c1)ncn2CCOCCOCCn1cnc2ccccc21,0.84,0.52
CCc1ccc2[nH]c(C(=O)Nc3ccc(C)c(F)c3)cc2c1,0.34,-1.72
C=C(C)n1c(=O)[nH]c2ccccc21,1.36,-3.19
Cc1ccc(/C=C/C(=O)O)cc1S(=O)(=O)NCc1ccco1,0.18,-1.86
CC(=O)Nc1ccc(S(=O)(=O)C(C#N)c2nc3ccccc3nc2NCCCO)cc1 (configuration not stated),0.37,-0.8
OC(CNC1CCCCC1)CNC1CCCCC1,1.07,0.45
CCCC[C@@H]1CNCCN1CCc1cc(C(F)(F)F)cc(C(F)(F)F)c1,1.04,0.42
CC(c1nccs1)N(C)C(=O)CCc1nnc(Cc2c[nH]c3ccccc23)o1 (configuration not stated),0.44,0.28
O=C(N/N=C/c1cccnc1)C1CC1(c1ccccc1)c1ccccc1 (configuration not stated),0.35,-1.8
O=C(/C=C/c1ccc(Cl)cc1)NCCc1ccccc1,0.01,-0.02
CCCOC(=O)c1c(NC(=O)CCC(=O)O)sc2c1CCCCC2,1.4,-0.54
Cn1c(=O)cc(OCC(=O)NCCc2ccc(Cl)cc2)c2ccccc21,1.03,-0.13
O=C(O)C1C2CCC(O2)C1C(=O)Nc1ccc(F)cc1 (configuration not stated),4.17,8.56
CCc1nnc(NC(=O)c2ccc(Br)o2)s1,1.94,-0.79
O=S(=O)(Nc1ccc(O)c(Sc2nc3ccccc3s2)c1)c1ccc(F)cc1,1.33,-0.1
O=C(O/N=C1\CCS(=O)(=O)c2sccc21)c1ccc(F)cc1,0.08,0.84
CN(Cc1ccccc1)C(=O)Nc1ccccc1,0.62,0.04
CC(=O)Nc1cc(ON=C(C)C)cc([N+](=O)[O-])c1,1.29,-2.7
CC1CCC2(CC1)NC(=S)N(c1ccccc1)N2 (configuration not stated),1.78,0.13
CCOc1ccc(NC2CCN(C(C)=O)CC2)cc1,1.21,-0.27
COc1ccc(CCN=C(N)NS(=O)(=O)c2ccccc2)cc1,0.96,-0.42
COc1ccc(NC(=O)Nc2cc(C(C)(C)C)on2)cc1OC,1.55,-1.35
CCOC(=O)c1c(N)sc(C(C)=O)c1C,0.11,1
CCOC(=O)NC(=O)C(=CNc1cccc(C)c1)C(=O)NC(=O)OCC,0.01,-0.06
# Following part:
SMILES,KCNQ2 pot,KCNQ2 pot baseline
CC(=O)Oc1ccc2c(c1)OC(c1ccccc1)CC21CC(C)(C)NC(=S)N1 (configuration not stated),2.6,1.6
O=C(CCN1C(=O)COc2ccccc21)NCCCN1CCc2ccccc2C1,1.25,0.42
O=C(O)CCc1ccc(-c2ccc(Br)cc2)o1,0.57,-0.41
Cc1ccc(NC(=O)Cn2ccc([N+](=O)[O-])n2)cc1Cl,0.59,-0.78
COc1ccccc1C(=O)OCC(=O)c1cccc([N+](=O)[O-])c1,0.36,-0.97
O=C(NC(=O)c1ccccc1Cl)C(=O)Nc1ccc(Cl)cc1,0.16,0.88
O=[N+]([O-])c1ccc(O)c(/C=N/n2c(CO)nc3ccccc32)c1,0.67,0.72
O=C(NCCN1CCOCC1)C1CC(=O)N(c2ccc(Cl)cc2)C1 (configuration not stated),0.31,-0.07
CCOc1ccc2ncc(S(=O)(=O)c3ccccc3)c(N3CCN(c4ccccc4)CC3)c2c1,1.42,-0.25
COc1ccc(Cc2nnc(NC(=O)Nc3ccccc3)s2)cc1OC,0.42,0.49
CN1C(=O)CSc2ccc(NC(=O)NCCC3=CCCCC3)cc21,0.32,-0.43
COc1cccc(SCc2noc(C(=O)NCCCN3CCOCC3)c2C(=O)NCCCN2CCOCC2)c1,0.86,-1.03
COc1ccc(N2CCN(S(=O)(=O)c3ccc(Br)s3)CC2)cc1,1.06,-1.11
O=P(O)(CP(=O)(c1ccccc1)c1ccccc1)c1ccccc1O,0.79,-0.04
Nc1nc(N)nc(-c2ccccc2-c2nc(N)nc(N)n2)n1,0.03,-0.57
COC(=O)N/N=C/c1c(C)c(C(=O)c2ccc(F)cc2)n2ccccc12,0.05,-1.38
O=C1NC(=S)N/C1=C/c1cccnc1,0.4,-1.04
CC(=O)N1c2ccc(S(=O)(=O)N3CCCCC3)cc2CC1C(=O)NCc1ccc(N(C)C)cc1 (configuration not stated),1.74,3.49
Cc1ccc(S(=O)(=O)CC(C)(O)CS(=O)(=O)c2ccc(C)cc2)cc1,0.3,1.52
O=C(Cn1c2c(c(-c3ccccc3)cc1=O)CCCC2)N1CCCCCC1,8.39*,-1.16*
COc1ccccc1C1NC(=O)c2ccccc2O1 (configuration not stated),0.64,3.1
COCCNC(=O)CCn1nc(-c2ccc(C)cc2)ccc1=O,1.31,-0.01
COCCn1c(SCC(=O)N2CCCC2)nnc1-c1ccoc1C,0.03,-0.36
O=C(Nc1ccc(O)cc1C(=O)O)c1cccc(Br)c1,2.96,-1
CCOC(=O)N1CCN(S(=O)(=O)c2cccc3nsnc23)CC1,0.96,1.05

# 14 compounds already listed, ordered by heavy-atom count, high to low:
SMILES,KCNQ2 pot,KCNQ2 pot baseline
COc1cccc(SCc2noc(C(=O)NCCCN3CCOCC3)c2C(=O)NCCCN2CCOCC2)c1,0.86,-1.03
CCOc1ccc2ncc(S(=O)(=O)c3ccccc3)c(N3CCN(c4ccccc4)CC3)c2c1,1.42,-0.25
O=C(CCN1C(=O)COc2ccccc21)NCCCN1CCc2ccccc2C1,1.25,0.42
CC(=O)Oc1ccc2c(c1)OC(c1ccccc1)CC21CC(C)(C)NC(=S)N1 (configuration not stated),2.6,1.6
O=C(Cn1c2c(c(-c3ccccc3)cc1=O)CCCC2)N1CCCCCC1,8.39*,-1.16*
COC(=O)N/N=C/c1c(C)c(C(=O)c2ccc(F)cc2)n2ccccc12,0.05,-1.38
Cc1ccc(S(=O)(=O)CC(C)(O)CS(=O)(=O)c2ccc(C)cc2)cc1,0.3,1.52
O=C(NCCN1CCOCC1)C1CC(=O)N(c2ccc(Cl)cc2)C1 (configuration not stated),0.31,-0.07
O=[N+]([O-])c1ccc(O)c(/C=N/n2c(CO)nc3ccccc32)c1,0.67,0.72
O=C(NC(=O)c1ccccc1Cl)C(=O)Nc1ccc(Cl)cc1,0.16,0.88
Cc1ccc(NC(=O)Cn2ccc([N+](=O)[O-])n2)cc1Cl,0.59,-0.78
COc1ccccc1C1NC(=O)c2ccccc2O1 (configuration not stated),0.64,3.1
O=C(O)CCc1ccc(-c2ccc(Br)cc2)o1,0.57,-0.41
O=C1NC(=S)N/C1=C/c1cccnc1,0.4,-1.04

# Continued.
SMILES,KCNQ2 pot,KCNQ2 pot baseline
Cc1ccc(Cl)cc1N(C(=O)c1csnn1)C(C(=O)NC1CCCC1)c1ccco1 (configuration not stated),0.81,-0.91
Cc1cccc(-c2c3c(nc4c2c(=O)n(C)c(=O)n4C)-c2ccccc2C3O)c1 (configuration not stated),0.11,0.22
Cc1[nH][nH]c(=O)c1C(c1ccc([N+](=O)[O-])cc1)c1c(C)[nH][nH]c1=O,1.61,0.14
Cc1nnc(Sc2cc(C(=O)NCCCOC(C)C)c3ccccc3n2)s1,0.38,0
Cn1c(C(O)c2ccc3c(c2)OCO3)nc2ccccc21 (configuration not stated),0.29,0.04
COCCn1c(=NC(=O)C2COc3ccccc3O2)sc2cc(S(N)(=O)=O)ccc21 (configuration not stated),0.67,0.12
COC(=O)CCCC[C@@H]1SC[C@@H](NC(=O)OC)[C@@H]1NC(=O)OC,0.38,-1.7
COC(=O)c1c(C(=O)OC)c2oc3ccccc3n2c1Cl,0.12,-0.83
O=C(O)CCCCCCCCCCCc1ccccc1,1.27,-1.2
COc1ccc(/C=N\NC(=O)c2ccc(=O)[nH]n2)cc1O,1.27,2.06
Cc1cc2c3c(c1)C1(C(=O)N3C(C)(C)CC2C)C(C#N)=C(N)OC2=C1C(=O)CC(C)(C)C2 (configuration not stated),1.45,1.44
CCc1ccc(C2(C)SC(NC(C)=O)=NN2C(C)=O)cc1 (configuration not stated),1.21,0.46
CCC(Oc1ccccc1)C(=O)NC1C(=O)N2C1SC(C)(C)C2C(=O)O (configuration not stated),0.07,2.61
COc1ccc(-c2nnc(-c3ccc(Br)o3)o2)cc1OC,0.52,-1.12
Cc1[nH]n2c(=O)c3c(nc2c1-c1ccccc1)CCCC3,0.57,-0.53
O=C(O)CC1COc2ccccc2N1C(=O)c1ccccc1Cl (configuration not stated),0.32,-0.01
NC(=S)N/N=C/c1ccccc1,0.95,-0.02
CC1Cc2cc(/C=C3/SC(N4CCC(C(N)=O)CC4)=NC3=O)ccc2O1 (configuration not stated),0.18,0.77

# An excerpt; rates above refer to the full screens.
